HCMV UL50-53 inh – inhibitors of HCMV UL50-UL53 nuclear egress complex interaction; HTRF UL50-UL53 interaction, normalized percent inhibition; inhibition, % (concentration not given with the values); 0.15% of 190,000 active;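 active = both replicates at 50% or more, plus weaker picks with an unusually low signal ratio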;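 note: stock transfer was 100 nL into about 20 µL; 0% = negative control wells and 100% = wells with untagged competitor protein; inactives centre near -12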
GIV-Gai inh – inhibitors of GIV GBA-motif binding to rat Galpha-i3 | percent of control (FP), % (test concentration not listed) | Galpha-i3/FITC-GIV peptide fluorescence polarization, 90 min; hits give low values; scaled: aluminum fluoride 0%, vehicle 100% | P08753 | AID 1224905 | 0.42% of 210,000 active;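 active = replicate mean at 85% of control or lower, very high polarization wells dropped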;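 note: wells of about 15 µL received 100 nL stock; the first replicate is given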
Target sequence (P08753 whole entry, looked up): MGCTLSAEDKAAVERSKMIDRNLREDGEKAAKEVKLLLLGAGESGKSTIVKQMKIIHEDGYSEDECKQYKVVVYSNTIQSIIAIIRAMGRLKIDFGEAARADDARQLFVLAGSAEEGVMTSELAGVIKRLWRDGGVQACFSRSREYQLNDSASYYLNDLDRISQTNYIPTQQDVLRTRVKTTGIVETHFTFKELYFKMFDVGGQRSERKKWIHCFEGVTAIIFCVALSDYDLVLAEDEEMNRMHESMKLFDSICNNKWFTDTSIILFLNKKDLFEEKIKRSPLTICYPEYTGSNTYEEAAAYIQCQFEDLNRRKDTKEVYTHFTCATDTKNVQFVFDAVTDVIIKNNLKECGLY
Sa growth 42C – inhibitors of Staphylococcus aureus growth at 42 °C; S. aureus RN4220 growth, OD600, 20 h; hits give low values; relative growth, % (concentration not given with the values); 0.53% of 170,000 active;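 active = growth at 42 °C up to 50% and 20 or more points under that at 30 °C, or under 10% at both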;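 note: 300 nL library stock went into each well; scaled to the means of positive and negative controls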
Sa growth 42C second temp – recorded beside Sa growth 42C, whose call it bears; relative growth, %; measured here: growth at 30 °C;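 optical density after 20 h as mean of two plates; 100% = untreated growth and lower means inhibition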
The depositor's hits bear a star; . = no result given; & = joins results of further samples. No enrichment for hits; overall some 0.83% were active at least once.

Short keys: A = HCMV UL50-53 inh; B = GIV-Gai inh; C = Sa growth 42C; D = Sa growth 42C second temp
> Cc1ccc(C(=O)CC(=O)c2ccccc2O)cc1
  A: -14	B: 100	C: 0.8*	D: 1.6*
> CCOC(=O)C1CCCCN1S(=O)(=O)c1ccc2[nH]c3c(c2c1)CCCC3 (stereo unspecified)
  A: -17	B: 97	C: 98	D: 92
> Cn1ncc(NC(=O)O/N=C/c2ccccc2)c1-n1cccc1
  A: -22	B: 104	C: 103	D: 88
> CCCCNC(=O)C1Cc2cc(Cl)ccc2O/C1=N\O (stereo unspecified)
  A: -29	B: 103	C: 85	D: 91
> CCCOC(=O)C1=C(C)NC2=C(C(=O)CC(c3ccc(OC)cc3)C2)C1c1ccc(O)c(OCC)c1 (stereo unspecified)
  A: -32	B: 101	C: .	D: .
> COCC(C)NCc1ccc(OC)c(OC)c1 (stereo unspecified)
  A: -10	B: 104	C: 102	D: 80
> CC(C)n1ncc2c(C(=O)NC3CCCCC3)cc(C3CC3)nc21
  A: -12	B: .	C: 96	D: 95
> CCNC(=O)c1c(C)nc2ccccn12
  A: -8	B: 101	C: 98	D: 82
> CC(=O)c1ccc(NC(=O)Cn2c(=O)oc3cc(S(=O)(=O)N4CCCCC4)ccc32)cc1
  A: 4	B: 111	C: 105	D: 85
> O=C(COc1ncnc2ccc(Br)cc12)N1CCCCC1
  A: -32	B: .	C: 103	D: 100
> Cc1ccc(-n2ncc(C(=O)NCc3ccco3)c2C2CCN(C(=O)OC(C)(C)C)CC2)c(C)c1
  A: .	B: 102	C: 80	D: 87
> Cc1cc(C(=O)NCc2cccc(Br)c2)c2c(=O)n(C)c(=O)n(C)c2n1
  A: -20	B: 102	C: .	D: .
> CCNC(=S)NC(=NC1CCCC1)Nc1nc(C)cc(C)n1
  A: 8	B: 114	C: 105	D: 99
> COc1ccc(-c2cc(C)no2)cc1S(=O)(=O)N1CCOc2ccc(Cl)cc21
  A: .	B: 108	C: 111	D: 86
> CCC1=C(C(=O)OC)C(c2cc(OC)c(OC)cc2OC)n2ncnc2N1 (stereo unspecified)
  A: .	B: 100	C: 107	D: 85
> CCCCCCn1c(SCCC(=O)O)nc2c1c(=O)[nH]c(=O)n2C
  A: -3	B: 102	C: .	D: .
> CC(=O)N(C(C)=O)c1ccc2c(c1)C(C)(C)C(C)N2C (stereo unspecified)
  A: -40	B: .	C: 102	D: 88
> O=C(O)CNC(=S)N(Cc1ccccc1)Cc1cccs1
  A: .	B: 101	C: 112	D: 100
> NC(=O)CCc1cn(-c2ccccc2)nc1-c1ccccc1
  A: -24	B: .	C: 106	D: 88
> CCOC(=O)c1csc(CS(=O)(=O)Cc2ccco2)n1
  A: -6	B: 104	C: 77	D: 82
> CC1CC(C)(C)Cc2c1sc(NC(=O)c1ccco1)c2C#N (stereo unspecified)
  A: -30	B: .	C: 104	D: 96
> CC1(C(=O)NC2CCCC2)CCC(=O)N1C1CCCCC1 (stereo unspecified)
  A: -30	B: 102	C: 93	D: 89
> CN1C(=O)COc2ccc(C(=O)CSc3nnc(-c4ccoc4)c(-c4ccoc4)n3)cc21
  A: -49	B: 101	C: 92	D: 51
> CNS(=O)(=O)c1cn(CC(=O)N2CCN(c3ccc(Cl)cc3)CC2)cc1S(=O)(=O)NC
  A: 1	B: 104&103	C: 114	D: 97
> Cc1ccc(-c2cc3nc(-c4cccnc4)cc(C(F)(F)F)n3n2)cc1
  A: -15	B: 99	C: .	D: .
> Cc1ccc(NC(=O)CN2C(=O)COc3ccc(S(=O)(=O)N4CCCCCC4)cc32)cc1Cl
  A: .	B: 108	C: 110	D: 95
> Cc1ccc(OCC(=O)N2CCC(c3nc4ccccc4s3)CC2)cc1
  A: -19	B: 105	C: .	D: .
> CCOc1ccc(CCNC(=O)c2cn3c4c(ccc(Cl)c4c2=O)OC(C)C3)cc1 (stereo unspecified)
  A: .	B: 104	C: 107	D: 83
> Cc1ccc(C)c(Cn2c(-c3cccs3)nc3ccccc32)c1
  A: -9	B: 102	C: 86	D: 81
> COc1ccc(OCc2cc(=O)n3ccsc3n2)cc1
  A: -21	B: 96	C: .	D: .

An excerpt from above in order of molar mass, smallest number first.
Short keys: A = HCMV UL50-53 inh; B = GIV-Gai inh; C = Sa growth 42C; D = Sa growth 42C second temp
> NC(=O)CCc1cn(-c2ccccc2)nc1-c1ccccc1
  A: -24	B: .	C: 106	D: 88
> Cn1ncc(NC(=O)O/N=C/c2ccccc2)c1-n1cccc1
  A: -22	B: 104	C: 103	D: 88
> O=C(O)CNC(=S)N(Cc1ccccc1)Cc1cccs1
  A: .	B: 101	C: 112	D: 100

Further results follow:
Short keys: A = HCMV UL50-53 inh; B = GIV-Gai inh; C = Sa growth 42C; D = Sa growth 42C second temp
> Clc1ccc(C2=NNC(=NCCCN3CCOCC3)SC2)c(Cl)c1
  A: -6	B: .	C: 109	D: 97
> C=CCN(C(=O)CSc1cc(=O)n(C)c2ccccc12)c1ccccc1
  A: .	B: 104	C: 106	D: 89
> CC(C)C1NC(=O)N(c2ccccc2)C1=O (stereo unspecified)
  A: -8	B: .	C: 105	D: 84
> CN(C)C(=O)c1ccc2c(c1)N(CC(=O)NCc1ccc(F)cc1)C(=O)C1CCCCN21 (stereo unspecified)
  A: .	B: 104	C: 101	D: 86
> C=CCN1C(=O)S/C(=C/c2cc(Cl)cc(OC)c2O)C1=O
  A: -6	B: 113	C: 116	D: 108
> CCCSc1nnc2n(N)c(=O)c3ccccc3n12
  A: -29	B: 108	C: 95	D: 84
> N#Cc1ccccc1COC(=O)CNC(=O)c1ccccc1
  A: -6	B: .	C: 75	D: 92
> Clc1cccc(-c2nc(NCCN3CCOCC3)nc3c2COc2ccccc2-3)c1
  A: -13	B: 100	C: 92	D: 86
> O=C(Cc1cccs1)N1CCc2ccccc2C1
  A: -21	B: .	C: 89	D: 78
> O=C(OC(Cn1cncn1)c1ccc(Cl)cc1)c1ccccc1 (stereo unspecified)
  A: -10	B: .	C: 103	D: 91
> COc1ccc(C(=O)Nc2cc(-c3ccccc3)nn2-c2ccccc2)cc1
  A: .	B: 103&105	C: 66	D: 77
> Cc1ccc(-c2cc3ncc4c(n3n2)-c2ccccc2OC4)cc1
  A: -15&-26	B: 106&96	C: 100	D: 84
> CC1=NOC(=O)/C1=C/c1ccc(N(C)C)cc1
  A: .	B: 106	C: 107	D: 105
> O=C(Nc1nc2c(s1)CCCC2)c1ccccc1F
  A: -15	B: 99	C: 95	D: 49
> CCOc1ccc(-c2cn3c(n2)sc2cc(C(=O)NCCCN(CC)CC)ccc23)cc1
  A: .	B: 106	C: 135	D: 92
> O=c1c(N2CCOCC2)nnc2sc3ccccc3n12
  A: -44	B: 108	C: 109	D: 85
> COC(=O)c1cc(S(=O)(=O)NCCC(=O)Nc2ccc(Cl)cc2C)cn1C
  A: -10	B: 102	C: .	D: .
> CCOc1ccccc1CNC(=O)c1oc2c(c1C)-c1[nH]ncc1CC2
  A: -2	B: 107	C: 97	D: 71
> CC(C)=CC(=O)Nc1ccccc1C(F)(F)F
  A: -7	B: 101	C: 126	D: 94
> O=S(=O)(NCc1cccc2ccccc12)c1ccccc1
  A: -4	B: .	C: 111	D: 106
> O=S(=O)(c1ccccc1)N1CCC(c2nc3ccccc3[nH]2)CC1
  A: -24	B: 100	C: 100	D: 90
> COc1ccc(NC(=O)C(NC(=O)C2CCCCC2)C(C)C)cc1 (stereo unspecified)
  A: .	B: 111	C: 95	D: 98
> Cc1ccc(COC2CN(S(=O)(=O)c3ccc(Cl)cc3)C2)cc1
  A: 2	B: 103	C: .	D: .
> O=C(NC(c1ccccc1)c1ccccc1)c1ccccc1Cl
  A: -16	B: .	C: 95	D: 76
> O=C(O)c1cc(NC(=O)c2ccc(NC(=O)c3ccco3)cc2)cc(C(=O)O)c1
  A: -34	B: 79*	C: 91	D: 83
> Cc1ccc(-c2csc3ncnc(N4CCN(c5ccccn5)CC4)c23)cc1
  A: 4	B: 109	C: .	D: .
> CCOc1ccccc1C(=O)OCC(=O)Nc1cccc(Cl)c1
  A: -30	B: .	C: 101	D: 82
> O=C(C1CC1)N1CCN=C1SCc1c(F)cccc1Cl
  A: -34	B: 100	C: 80	D: 90
> O=C(SC1=NCCc2ccccc21)c1ccccc1
  A: -20	B: 98	C: 114	D: 89
> c1ccc(NCc2ccc3c(c2)OCO3)cc1
  A: -8	B: 99	C: 100	D: 88
> CCc1ccccc1NC(=O)c1ccc2c(SCC(=O)O)c3c(nc2c1)CCC3
  A: -50	B: 96	C: 107	D: 90
> COc1ccc(CC(=O)OCC(=O)Nc2ccc(Br)cc2)cc1
  A: -30	B: .	C: 99	D: 84
> COc1cccc(NC(=O)N2CCN(c3nc4ccccc4n(Cc4ccccc4)c3=O)CC2)c1
  A: -22	B: 103	C: .	D: .
> Cc1oc2ncnc(Oc3ccc4cnccc4c3)c2c1C
  A: -10	B: 102	C: .	D: .
> CCc1ccc(C2c3c(oc4ccccc4c3=O)C(=O)N2c2ccccn2)cc1 (stereo unspecified)
  A: .	B: 102	C: 86	D: 96
> CCOC(=O)NCCc1c(F)cccc1Cl
  A: -21	B: 98	C: 89	D: 88
> CCCCn1cc(S(=O)(=O)c2cccc(C)c2)c(=O)c2cc(F)c(N3CCOCC3)cc21
  A: .	B: 107	C: 99	D: 99
> Cc1ccccc1NC(=O)Nc1nnc(N2CCCCCC2)s1
  A: -7	B: 102	C: 116	D: 82
> COc1ccc(NC(=O)c2nc(S(C)(=O)=O)ncc2N(Cc2ccc(C)cc2)Cc2ccco2)cc1Cl
  A: -5	B: 104	C: 103	D: 93
> Cc1ccc(Cn2c(=O)c3cccnc3n(CC(=O)Nc3cccc(C(F)(F)F)c3)c2=O)cc1
  A: -24	B: 107	C: 111	D: 80
> COc1ccc(CNC(=O)c2ccc(-c3nc(CSc4ccccc4)c(C)o3)cc2)c(OC)c1
  A: .	B: 109	C: 113	D: 92
> CCOc1cccc(CC(=O)N2CCc3c([nH]c4ccccc34)C2c2ccc(SC)cc2)c1OCC (stereo unspecified)
  A: 2	B: 108	C: 94	D: 89
> Cc1cccc(C(=O)Nc2ccc(OCc3cc(=O)n4ccc(C)cc4n3)cc2)c1
  A: .	B: 104	C: 85	D: 89
> O=c1[nH]nc(-c2cc(C(F)(F)F)cc(C(F)(F)F)c2)c2ccccc12
  A: 12	B: 102	C: 111	D: 99
> CCN(CC)CCNC(=O)c1cc(S(C)(=O)=O)ccc1OC
  A: -37&-20&-14	B: 97	C: 88	D: 88
> Cc1ccc2oc(=O)c3cnn(CC(=O)N(Cc4ccco4)C4CCCC(C)C4C)c3c2c1 (stereo unspecified)
  A: -26	B: 98	C: 96	D: 87
> CC1CCCCN1C(=O)c1ccc2c(c1)N(Cc1cccc(Cl)c1)C(=O)c1ccccc1S2=O (stereo unspecified)
  A: .	B: 104	C: 85	D: 68
> CC1CCC/C(=N/NC(=O)c2c[nH]c3ccccc23)C1 (stereo unspecified)
  A: -3	B: .	C: 113	D: 100
> Cc1c(S(=O)(=O)C(C)C)c(N)n(Cc2ccc(F)c(Cl)c2)c1C
  A: 1	B: 157	C: 103	D: 78
> CC(C)N1CCC(NC(=S)NCc2ccccc2)CC1
  A: -11	B: .	C: 84	D: 82
> O=C(Cn1c(SCC(=O)N2CCc3ccccc32)nc2ccccc21)NC1CC1
  A: -4	B: 105	C: 111	D: 73
> Cc1cn2c(=O)cc(COc3ccccc3NC(=O)c3ccccc3C)nc2s1
  A: -19	B: 100	C: 102	D: 87
> CCOc1ccc(NC(=O)C2CCN(S(=O)(=O)c3ccc4c(c3)oc(=O)n4C)CC2)cc1
  A: -2	B: 109	C: 111	D: 82
> O=C(COC(=O)C1CCCCC1)Nc1ccc(Cl)cn1
  A: -10	B: .	C: 67	D: 88
> COc1ccc(NC(=O)C2=C(C)Nc3ncnn3C2c2ccc(O)cc2)cc1 (stereo unspecified)
  A: .	B: 98	C: 101	D: 86
> CC(NS(=O)(=O)c1ccc(Oc2cccc(Cl)c2C#N)cc1)C(C)(C)C (stereo unspecified)
  A: -18	B: 105	C: 88	D: 84
> C/C(=N\NC(=O)CCc1ccccc1)c1cccc(N)c1
  A: 5	B: 97	C: 115	D: 89
> Cc1cn2ccccc2c1P(=Nc1ccccc1)(N1CCOCC1)N1CCOCC1
  A: -12	B: .	C: 108	D: 91
> COc1cccc(NC(=O)CSc2cn(CC(=O)N3CCOCC3)c3ccccc23)c1
  A: -23	B: 100	C: 88	D: 83
> CC(C)OC(=O)Oc1ccc2oc(=O)sc2c1
  A: -4	B: .	C: 74	D: 90

More compounds:
Short keys: A = HCMV UL50-53 inh; B = GIV-Gai inh; C = Sa growth 42C; D = Sa growth 42C second temp
> O=C(Cn1cnc2ccccc2c1=O)N1CCc2ccccc21
  A: -2	B: .	C: 90	D: 94
> Clc1cccc(N2CCN(CCCNc3nn4nnnc4c4ccccc34)CC2)c1
  A: -30	B: 100	C: .	D: .
> COc1ccc(NC(=O)CC(C)S(=O)(=O)c2cc3c(cc2C)NC(=O)CO3)cc1OC (stereo unspecified)
  A: .	B: 99	C: 119	D: 82
> CCOc1cc2c(c([N+](=O)[O-])c1)NC(c1cccc(Cl)c1Cl)C1CC=CC21 (stereo unspecified)
  A: 3	B: 102	C: .	D: .
> COc1cc2c(C(=O)N(C)c3cc(Cl)ccc3OC)cn(CC(C)C)c(=O)c2cc1OC
  A: 11	B: 105	C: 100	D: 84
> CSC1=NC2(CCCCC2)C2=C(CCCC2)N1
  A: -12	B: .	C: 84	D: 93

Compound activity (PubChem BioAssay)
